Screens: PubChem, ICCB-Longwood Screening Facility, Harvard Medical School
fixLJ activator: activators of Burkholderia fixLJ two-component system | B. multivorans fixK-promoter GFP reporter, 18 h; stronger effect = higher value | z-score (no concentration beside the values) | actives 0.3% (n = 29,000) | AID 1918990;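 active means replicate mean overnight rise in green fluorescent reporter signal, 3 or more SD over negative controls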;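 further: score is relative to vehicle wells of the plate; 300 nL library stock went into each well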
Starred values were filed as active, the others as inactive. Not all compounds are listed, so the mix of outcomes need not match the whole.

structure	fixLJ activator
Cc1cc(C)cc(NC(=O)N2CCC3(CC2)Oc2ccccc2C(=O)N3Cc2ccccc2F)c1	-1.2
COc1ccc(-c2cc(-c3ccccc3)c(C#N)c(SCC(O)CS(=O)(=O)Cc3ccccc3)n2)cc1 (stereo not drawn)	0.21
COc1cc(OC)c(NC(=O)NC(C)c2c(-n3cccc3)sc(C)c2C)cc1Cl (stereo not drawn)	0.36
Cc1cccc(CNC(=O)Cc2csc3ccccc23)c1	0.11
CN1CCN(C(c2ccccc2)c2ccc(Cl)cc2)CC1 (stereo not drawn)	-2
CCn1c(C(=O)N2CCC(C(=O)N3CCN(c4cc(C)ccc4C)CC3)CC2)cc2sccc21	-0.35
COc1ccc(Cl)cc1NC(=O)c1cc2nc(-c3ccc4c(c3)OCO4)cc(C(F)(F)F)n2n1	-0.34
COc1ccc(-c2cc(C(F)(F)F)n3ncc(-c4ccccc4)c3n2)cc1	3.3*
COc1ccc(CCNC(=O)c2c(O)nc3ccccn3c2=O)cc1OC	-0.77
O=C(NC1CC(c2cc(=O)[nH]c(N3CCCC3)n2)C1)c1cnco1 (stereo not drawn)	-0.08
O=c1cc(COc2ccc(Cl)cc2Cl)nc2scc(-c3ccccc3)n12	-0.37
CCc1nn(C)c(Cl)c1CNC(C)c1nc(-c2ccncc2)no1 (stereo not drawn)	1.4
Cc1ccc2nc(-c3ccc(NC(=O)C(F)(F)F)cc3)sc2c1	-2.5
Cc1cc(C)c2[nH]c(C)c(CC(=O)NCCCc3ccccn3)c2c1	-0.79
COc1ccc(OC)c(NC(=O)c2nc(SCc3ccc(F)cc3)ncc2Cl)c1	0.96
CCc1cccc(NC(=O)Cn2c(C(=O)OC)cc3occc32)c1	-1.8
Nc1c(-c2nc(-c3ccccc3)no2)nnn1CC(=O)Nc1ccccc1	-0.94
COCCCNC(=O)c1c(NC(=O)Cc2coc3cc(C)cc(C)c23)sc2c1CCCC2	-0.68
COc1cc(OC)cc(C(=O)Nc2ccc3nc(N4CCC(C)CC4)cc(C)c3c2)c1	0.01
CCOc1cccc(C(=O)N(Cc2ccc(C(C)C)cc2)C2CCS(=O)(=O)C2)c1 (stereo not drawn)	-1.6

Five structures out of the list, arranged by molar mass, rising.
structure	fixLJ activator
CCc1cccc(NC(=O)Cn2c(C(=O)OC)cc3occc32)c1	-1.8
O=C(NC1CC(c2cc(=O)[nH]c(N3CCCC3)n2)C1)c1cnco1 (stereo not drawn)	-0.08
CCn1c(C(=O)N2CCC(C(=O)N3CCN(c4cc(C)ccc4C)CC3)CC2)cc2sccc21	-0.35
COc1ccc(Cl)cc1NC(=O)c1cc2nc(-c3ccc4c(c3)OCO4)cc(C(F)(F)F)n2n1	-0.34
COc1ccc(-c2cc(-c3ccccc3)c(C#N)c(SCC(O)CS(=O)(=O)Cc3ccccc3)n2)cc1 (stereo not drawn)	0.21

(next part)
structure	fixLJ activator
O=C(CSc1ncc(-c2ccccc2)[nH]1)Nc1ccc(Cl)cc1	-0.32
COc1ccc(NC(=O)c2cc(=O)c3ccc(C)c(C)c3o2)cc1Cl	-3.2
Cc1ccc(Cl)cc1N1CCN(C(=O)c2ccc3c(Cl)c4c(nc3c2)CCCC4)CC1	-1
COc1cc2c(cc1NC(=O)COc1cc(C)cc(C)c1)oc1ccccc12	-1.3
NC(=O)c1ccnc(N2CCCC3(CCC(=O)N(Cc4ccccc4)C3)C2)c1 (stereo not drawn)	0.26
CC(C)COc1ccc(C(=O)N2CCCCC2CCN2CCOCC2)cc1 (stereo not drawn)	-2.3
COc1ccc(CN2CCN(c3ncccc3C(N)=O)CC2)cc1Cn1cccn1	-0.67
O=C(NCCSc1cn[nH]n1)N1CCCC(Cc2nc3ccccc3[nH]2)C1 (stereo not drawn)	0.23
Cn1c(Cn2ccnc2)nnc1C1CCCN(Cc2cnc[nH]2)C1 (stereo not drawn)	0.27
CCOCc1cc(CN2CCN(c3cccc(Cl)c3)CC2)c(O)c2ncccc12	-5.2
COc1ccc2cc(CNC3CCCN(C(=O)c4ccco4)C3)c(=O)[nH]c2c1 (stereo not drawn)	-0.31
COc1ccc(Cl)cc1NC(=O)c1sc2nc(-c3ccc(OC)c(OC)c3)ccc2c1N	-1.7
COc1ccc(-n2c(SCC(N)=O)nc3c(oc4ccccc43)c2=O)cc1	-0.68
COc1ccc(-c2nc3cc(NC(=O)c4cc5ccccc5o4)ccc3o2)cc1	-0.01
CCc1ccccc1NC(=O)CN(C)S(=O)(=O)c1cccc2nsnc12	-1.1
CCN1Cc2cccc(C(=O)Nc3ccc(F)cc3)c2C1=O	0.19
CCn1c(=O)c(=O)n(CC)c2cc(N3CCCCC3)c(NC(=O)c3cccc(OC)c3)cc21	0.46
CC(=O)c1c(C)nn(C(C)CC(=O)NCCc2ccn[nH]2)c1C (stereo not drawn)	-2.1
CCOC(=O)c1cccc(NC(=O)CCn2c(=O)oc3ccccc32)c1	-1.8
CCOC(=O)c1cc(NC(=O)c2ccc(C)cc2)c(=O)n2c1oc1ccc(Cl)cc12	-1.1

The list goes on.
structure	fixLJ activator
COCCCC1CCCN(c2nccc(-c3cc(C(=O)O)ccn3)n2)C1 (stereo not drawn)	-0.38
COc1ccc(CNC(=O)C(CC(C)C)NS(=O)(=O)c2ccc3c(c2)CCN3C(C)=O)cc1 (stereo not drawn)	-0.96
CCCN1Cc2cccc(C(=O)Nc3ccccc3F)c2C1=O	-0.84
Cc1ccc(N2CC(c3nnc(Cc4ccccc4Cl)o3)CC2=O)cc1 (stereo not drawn)	-1.5
CCOC(=O)N1CCN(C(=O)c2ccc3c(c2)N(Cc2cc(C)ccc2C)C(=O)c2ccccc2S3=O)CC1 (stereo not drawn)	-1.1
CC(=O)Nc1ccc(NC(=O)c2ccc(COc3ccc(Cl)cc3Cl)o2)cc1	-1.6
Cc1cc(S(=O)(=O)NC2CCCN(C(=O)C(C)C)C2)c(C)cc1Cl (stereo not drawn)	-0.25
CC(=O)N1CCCC1C(=O)N1CCCN(Cc2cnc(C)cn2)CC1 (stereo not drawn)	-0.87
COc1ccc(S(=O)(=O)c2cn(CC(=O)Nc3ccccc3)c3ccc(Cl)cc3c2=O)cc1	-1.5
COc1cccc(/C=C/c2nc(C#N)c(NC3CCCCC3)o2)c1	-0.24
Cc1cc(C)c2c(=O)cc(C(=O)Nc3sc4c(c3C#N)CCCC4)oc2c1	-0.93
Oc1ccc(-c2nc3ccccn3c2Nc2ccc3c(c2)OCCO3)cc1	-0.98
CCCCOc1cccc(NC(=O)CSc2nnc(C)s2)c1	-0.56
COc1ccccc1N1CCN(C(c2ccc(Cl)cc2)c2nnc(-c3cccc(F)c3)o2)CC1 (stereo not drawn)	-0.34
COCCN1CC2(CCC1=O)CCN(C(=O)c1cnc(C(C)C)nc1)CC2	-1.3
CNC(=O)Cn1cc(NC(=O)Cc2cnc3c(C)cccn23)cn1	1.3
Cc1ccc2occ(CC(=O)Nc3nnc(C(C)C)s3)c2c1	0.05
Cc1ccc(Nc2nc(C)nc(N)c2S(=O)(=O)c2ccccc2)cc1	-0.7
CCc1c(C)nc2nncn2c1Nc1ccc(C)c(F)c1	-0.92
Cc1ccc(C)c(Oc2nc3c(c(=O)n(C)c(=O)n3C)n2Cc2ccccc2)c1	-0.27

The list goes on:
structure	fixLJ activator
Cc1ccccc1C1CC(=O)Nc2ccc3ccccc3c21 (stereo not drawn)	-0.77
COC1CCC[C@]12CCCN(Cc1nc(-c3ccccc3C)no1)C2 (stereo partly drawn)	-0.53
Cc1ccc(Nc2c(-c3ccccc3O)nc3cc(C)ccn23)cc1	0.24
CCN(C(=O)Cn1c(C(=O)OC)cc2sc(Cl)cc21)c1cccc(C)c1	-1.1
Cc1ccc(NC2=C(c3ccc(C(F)(F)F)cc3)C(=O)c3ccccc32)cc1C	3.3*
Cc1cc(C(F)(F)F)n(CC(C)CNC(=O)CCN2CCN(C)CC2)n1 (stereo not drawn)	0.52
COc1ccc(C(=O)c2oc3ccccc3c2NC(=O)COc2c(C)cc(C)cc2C)cc1	-0.85
Cc1c(Cl)cccc1N1C(N)=C(C#N)C(c2cc(CN3CCOCC3)cs2)C2=C1CCCC2=O (stereo not drawn)	-0.87
CCc1cc2c(cc3c(=O)n(CC(=O)NCCc4ccc(OC)cc4OC)nc(CC)n32)s1	-2
O=C(NC(=O)c1cccc(F)c1)Nc1ccc(-c2cc(C(F)(F)F)nn2-c2ccccc2)cc1	-1.7
COc1ccc(N(C)S(=O)(=O)c2ccc3c(c2)n(C)c(=O)c(=O)n3C)cc1	0.56
Cc1ccoc1C(=O)N1CC2OC(=O)N(CCCN3CCOCC3)C2C1 (stereo not drawn)	-1.6
Cc1ccc(Nc2c(-c3cccnc3)nc3ccc(Br)cn23)cc1	-0.96
CCOC(=O)N1CCc2c(sc3c2c(=O)n(CCc2ccccc2)c(=O)n3Cc2ccc(C)cc2C)C1	-0.48
CCN(CC)CC(C)CNC(=O)c1cc(-c2ccc(Br)s2)nc2ccccc12 (stereo not drawn)	-2.2
CCOc1ccccc1N1CC(c2nc3ccccc3n2CCCOc2ccccc2)CC1=O (stereo not drawn)	-2.3
CN(CCCC1CCCC1)C(=O)c1cc(CN2CCC(O)CC2)on1	1.1
CCC(=O)Nc1ccc(NC(=O)CSc2nc(C)cc(C)n2)c(C)c1	-1.7
CCOc1ccc(N(CC(=O)Nc2cc(OC)cc(OC)c2)S(=O)(=O)c2c(C)[nH]c(=O)[nH]c2=O)cc1	-1.6
Cc1ccc(-c2nc(S(=O)(=O)c3ccc(F)cc3)c(N3CCN(c4ccccc4)CC3)o2)cc1	-1.2

(list continues)
structure	fixLJ activator
CCOC(=O)c1ccc(N2C(=O)c3n[nH]c(C)c3C2c2ccc(CC)cc2)cc1 (stereo not drawn)	-1.1
Cc1cc(C)cc(NS(=O)(=O)c2ccc3[nH]cc(C(=O)N4CCCCCC4)c(=O)c3c2)c1	-1.4
Cc1ccc2oc(C(=O)N(Cc3ccc(N(C)C)cc3)CC3CCCO3)c(C)c2c1 (stereo not drawn)	1.2
COc1ccccc1N1CC(NC(=O)N(C)Cc2nc(C)cs2)CC1=O (stereo not drawn)	-1.7
Cc1nc2c(c(C)c1CCC(=O)N1CCN(c3ccccc3)CC1)c(=O)n(C)c(=O)n2C	-0.59
O=c1cc(-c2ccccc2)c2cc(Cl)c3c(c2o1)CN(Cc1ccccc1)CO3	0.49
CCC(C(=O)OC)n1nnc2sc(-c3ccccc3)cc2c1=O (stereo not drawn)	2.9
COc1ccc(CN2CCN(S(=O)(=O)c3ccc(NC(C)=O)cc3)CC2)c(OC)c1OC	-0.29
COc1ccc(CCN2C(=O)c3oc4cc(C)cc(C)c4c(=O)c3C2c2ccccc2F)cc1OC (stereo not drawn)	-1.1
N#Cc1nc(/C=C/c2ccc(F)cc2)oc1N1CCCCC1	1.7
COc1ccc(N2CCN(C(=O)C3CCN(S(=O)(=O)c4cnc[nH]4)CC3)CC2)cc1	-1.9
CCOc1ccc(-n2c(C)nc3c(cnn3-c3ccc(C)cc3)c2=O)cc1	-1.2
COC1CN(Cc2cnc(-c3ccco3)nc2)CC1Cc1cc(C)no1 (stereo not drawn)	0.19
Cc1cccc(-n2c(/C=C/c3cn(C)c4ccccc34)nc3ccccc3c2=O)c1	2.5
Cn1c(=O)c2c(-c3ccc(Cl)cc3)n(Cc3ccc(Cl)cc3)cc2n(C)c1=O	-0.37
COCCCNC(=O)CCc1c(C)nc2cc(-c3ccc(Cl)cc3)nn2c1C	0.1
CCC(C)NC(=O)c1ccc2c(c1)N(Cc1ccccc1)C(=O)c1ccccc1S2(=O)=O (stereo not drawn)	-1.1
CC(=O)N1CCN(C(=O)c2cc(F)ccc2OCCCN)CC1	-0.5
COCC(C)NC(=O)c1cnn2c(C(F)F)cc(-c3ccccc3)nc12 (stereo not drawn)	-0.72
CCc1cccc(C)c1Nc1c(-c2ccc(N3CCOCC3)cc2)nc2ncccn12	-0.4

Next part
structure	fixLJ activator
Cc1cccc(NC(=O)C2CCCN(S(=O)(=O)c3c(C)[nH]c(=O)[nH]c3=O)C2)c1C (stereo not drawn)	-0.14
CCCCN(CC)CCCNC(=O)c1cn(CC)c2ccc(S(=O)(=O)N3CCOCC3)cc2c1=O	-1.3
Cc1cc(C)cc(Oc2nc3c(C)cccn3c(=O)c2/C=C(\C#N)c2nc3ccccc3s2)c1	-1.2
CCN(CC)c1cc(C)c2cc(NC(=O)/C=C/c3ccccc3Cl)ccc2n1	0.29
COc1ccc(CCNC(=O)Cn2c(=O)n(-c3ccccc3)c(=O)c3c(C)c(C)sc32)cc1OC	-1.5
COc1cc2[nH]c(=O)n(Cc3ccc(C(=O)NCc4ccc(C)cc4)cc3)c(=O)c2cc1OC	-2
Cn1c(=O)cc(OCC(=O)N2CCN(c3ccccc3F)CC2)c2ccccc21	-1.8
CC(C)(C)C(=O)NC1(C(F)(F)F)NC(=O)N(c2ccc(F)cc2)C1=O (stereo not drawn)	-1.5
COc1ccccc1NC(=O)C1=C(C)Nc2nc(SCc3ccccc3F)nn2C1c1ccncc1 (stereo not drawn)	0.03
COCCCNC(=O)c1ccc(Cn2c(=O)c3ccccc3n(CC(=O)Nc3c(C)cccc3C)c2=O)cc1	-2.1
Cc1cccc(NC(=O)c2sc3cccc(Cl)c3c2Cl)c1	0.06
CCOC(=O)c1c(C)n(-c2ccccc2)c2ccc(OC(=O)c3ccccc3NC(=O)C(C)C)cc12	-0.75
COc1ccc(CCNC(=O)Cc2c(C)c3cc4c(C)coc4cc3oc2=O)cc1OC	-0.05
CC(C)c1ocnc1C(=O)NC1CCN(Cc2cscn2)CC1O (stereo not drawn)	1
CCOc1ccc(C(=O)c2cn(Cc3ccccc3)c3c(F)cc(F)cc3c2=O)cc1	1.2
COc1ccc(-c2nc3ccccc3o2)cc1NC(=O)c1cccnc1	-2.3
CCOC(=O)c1c(C)n(-c2ccccc2)c2ccc(OC(=O)c3ccccc3)cc12	-0.22
CCOc1ccc(NC(=O)c2oc3ccccc3c2NC(=O)C(C)(C)C)cc1	-2.4
